gsp ag – activates gsp, the McCune-Albright syndrome mutation. gsp mutant cells, cAMP HTRF, 30 min; control for the full effect not named in the record. Potency, µM (doses to about 76.9 µM), inactives show at the highest dose activation (cAMP increase), usual class: activators. 340,000 tested, 0.13% active; active = well fitted activation curve with a large enough effect; inconclusive = small, poorly fitted or top-dose-only effect, or another doubt; inactive = no such curve, though single readings can be large or run the other way; cell line not stated here;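 also: phosphodiesterase inhibitor Ro 20-1724 added with compounds to block cAMP breakdown; potency is read from the fitted curve at half-maximal effect; nearly all actives have a fitted effect of over 60% in size; about a fifth of the inactives were tested at one dose only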
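Cells in DMEM/10% FBS with G418 were pretreated with compounds in DMSO plus […] (300 uM stock) for 30 min at 37C. cAMP was measured by HTRF (cAMP-d2 plus anti-cAMP antibody-K) after 30 min at room temperature.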
TRPML1 blocker – human mucolipin-1 channel inhibition | TRPML1-inducible cells, Ca2+ dye fluorescence, FDSS; stronger effect = lower value; inhibition of EC80 agonist-evoked calcium signal | activity change, negative = inhibition, % (concentration not given with the values) | 390,000 tested, 0.02% active; in the data active means activity change below about -50%; inconclusive means about -30% to -50%; inactive means above about -30%;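 also: stimulus is agonist 54-4 at its EC80 concentration; % is scaled to controls: 0 for no effect and ±100 for the full control effect; compound concentration not given in the record; the text of the record puts the active cut at -80%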
Target sequence (Q9GZU1 whole entry, looked up): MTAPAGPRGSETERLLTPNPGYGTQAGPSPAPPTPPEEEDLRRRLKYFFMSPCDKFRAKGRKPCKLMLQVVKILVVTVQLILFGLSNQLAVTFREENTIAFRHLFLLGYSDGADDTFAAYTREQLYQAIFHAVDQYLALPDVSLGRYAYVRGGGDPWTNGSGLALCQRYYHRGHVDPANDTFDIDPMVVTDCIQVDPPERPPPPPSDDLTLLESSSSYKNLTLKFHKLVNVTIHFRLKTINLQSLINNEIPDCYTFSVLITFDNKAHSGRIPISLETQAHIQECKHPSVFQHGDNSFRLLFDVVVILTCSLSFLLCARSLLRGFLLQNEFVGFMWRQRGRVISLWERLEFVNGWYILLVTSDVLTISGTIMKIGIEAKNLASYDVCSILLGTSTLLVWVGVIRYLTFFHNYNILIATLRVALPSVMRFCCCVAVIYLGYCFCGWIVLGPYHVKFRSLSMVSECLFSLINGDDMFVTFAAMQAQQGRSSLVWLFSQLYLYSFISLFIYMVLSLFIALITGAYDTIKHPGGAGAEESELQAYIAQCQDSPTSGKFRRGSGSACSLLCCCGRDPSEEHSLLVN
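Tet-induced TRPML1-DL cells loaded with Ca8 no-wash calcium dye were read kinetically on FDSS. Compound addition was followed by EC80 agonist 54-4 (4 uM final); inhibition was read over 110 s.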
Menin-MLL FL inh – displaces fluorescein MLL peptide from human menin; Fluorescence polarization, fluorescein-MLL peptide displacement from menin; FP activity change, % at 61.4 µM; 290,000 tested, under 10 active; inconclusive = falling polarisation curve, or a change in total fluorescence; inactive = total fluorescence flat and polarisation flat or rising; no compound was filed as active; the % refers to the polarisation; negative = inhibition;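 also: % of control where 0% means no effect; inhibitors lower the polarisation; unlabelled MLL peptide was the positive control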
TRPML1 agonist – agonists of human TRPML1 channel; Q9GZU1; TRPML1-expressing cells, Ca2+ dye fluorescence, FDSS; host cell line not named in the record; reference of the full effect not given here; activation, % (concentration not given with the values); 410,000 tested, 0.12% active; AID 624414; in the data active = activation above about 50%; inconclusive = about 30% to 50%; inactive = below about 30%; also: 0% is about no effect; the text of the record puts the active cut at 80%
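In this qHTS format, compounds were pin-transferred onto Ca8-dye-loaded TRPML1-DL cells induced with Tet overnight, and intracellular Ca2+ fluorescence was recorded kinetically for 110 s after a 10 s baseline. A subsequent 4uM final 54-4 (EC80) addition followed by a second 110 s read served as the antagonist phase.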
gsp antagonist – gsp mutant antagonism. gsp-mutant cells, cAMP HTRF, 30 min; control for the full effect not named in the record. Potency, µM (highest dose often 76.9 µM), for the others: at the highest dose activity change, negative = inhibition, actives largely listed as inhibitors. 340,000 tested, 0.4% active; active = falling curve of any shape with a large fitted effect; inconclusive = falling curve, mostly with a smaller effect; inactive = flat or rising curve; cell line not stated here;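 also: intracellular cAMP measured with PDE inhibitor Ro 20-1724 present during compound exposure; potency is read from the fitted curve at half-maximal effect; % is scaled to controls: 0 for no effect and ±100 for the full control effect; nearly all actives have a fitted effect of over 65% in size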
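Cells in G418 medium, seeded 16-24 h, 37C; buffer exchange to DPBS + 1 mM CaCl2, 0.5 mM MgCl2, 0.05% BSA; cpds in DMSO + […] (300 uM stock), 30 min 37C; HTRF cAMP detection.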
ClpP mod – qHTS Assay for Activators of ClpP | AID 651965, 2013 | ATP-dependent Clp protease proteolytic subunit (Bacillus subtilis (strain 168)), P80244 | purified B. subtilis ClpP, FRET peptide cleavage, 20 min | 340,000 tested, 1.9% active | Potency, µM (titrated, usually from 57.5 µM), for the others: at the highest dose activity change, negative = active; active = well fitted falling curve with a large enough effect; inconclusive = small, poorly fitted or top-dose-only effect; inactive = no such curve, though single readings can be large or run the other way; also: potency is read from the fitted curve at half-maximal effect; the source files actives as falling curves though it sought activators and does not explain the sign; nearly all actives have a fitted effect of over 65% in size; many hits overshoot -100%
Target sequence (P80244 whole entry, looked up): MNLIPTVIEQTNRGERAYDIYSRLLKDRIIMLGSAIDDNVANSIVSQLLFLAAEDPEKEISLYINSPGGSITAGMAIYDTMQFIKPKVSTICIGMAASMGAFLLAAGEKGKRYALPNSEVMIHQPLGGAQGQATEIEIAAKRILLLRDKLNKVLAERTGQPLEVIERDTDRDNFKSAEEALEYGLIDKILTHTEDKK
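Buffer: 100 mM Tris/HCl pH8, 100 mM KCl, 0.05% low protease BSA, 2.5% glycerol, 0.01% Tween-20. ClpP 10 microg/mL final; 20 min RT; delta FRET normalized to ADEP and DMSO controls.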
Numbers without * were called inactive; ? = inconclusive; . = no result given; [ ] = dose if it differs, or a comment.

Values in the order – gsp ag | TRPML1 blocker | Menin-MLL FL inh | TRPML1 agonist | gsp antagonist | ClpP mod
- Cc1cccc(NC(=S)NC(=O)CC2CC(C)(C)OC2=O)c1 (configuration not stated)
  -31%[inhibitor] | -2 | -0.5 | 0.0 | -4% | 0.3%
- Cc1nc2ncnn2c(N2CCN(C(=O)Cc3cccs3)CC2)c1C
  18% | -5 | 14 | 0.8 | 3% | -2.9%
- CC(Sc1ccc(S(=O)(=O)N2CCCCC2)cn1)C(N)=O (configuration not stated)
  -49%[inhibitor] | -11 | . | -0.5 | . | -2.5%
- COc1ccc(C2=[N+]([O-])C(C)(C)C(c3ccccc3)=N2)cc1
  7%[15.4 µM] | 7 | -0.6 | 2.7 | 3% | .
- O=C(N/C(=C\c1cccnc1)c1nc2ccccc2[nH]1)c1cccc(Br)c1
  13% | -6 | 7.9 | 0.4 | -6% | 7.9%
- O=c1c(Oc2ccccc2F)coc2cc(OCc3cnn(-c4ccccc4)c3)ccc12
  -74%[inhibitor] | 3 | 1.5 | 1.0 | -4% | -1.5%
- COc1ccc(-c2csc(N(CCCN(C)C)C(=O)c3ccccc3C)n2)cc1
  10% | 26 | 3.7 | -0.3 | 32%[activator] | .
- O=C(c1ccc2nccnc2c1)N1CCCC(N2CCN(c3ccc(F)cc3)CC2)C1 (configuration not stated)
  -29% | 20 | -2.2 | -0.4 | 7% | .
- COc1ccc(-n2c(SCC(=O)NCC3CCCO3)nc3c([nH]c4ccccc43)c2=O)cc1 (configuration not stated)
  -71%[inhibitor] | 7 | -15 | 0.3 | -18% | .
- CC(C)CCNc1nc(Nc2ccccc2)c2cnn(C)c2n1
  . | -3 | . | 1.3 | . | -13%
- O=C(CCC(=O)c1cccs1)NCc1ccccc1Cl
  7%[15.4 µM] | -9 | . | -0.7 | 4% | -0.6%
- CC1(C)OC(=O)C(=CNC(Cc2c[nH]c3ccccc23)C(=O)O)C(=O)O1 (configuration not stated)
  28% | 11 | 2.6 | 5.1 | 4% | 0.9%
- O=C(O)c1nn2cc(CCO)cnc2c1Cl
  5% | 16 | 4.6 | 1.0 | 10% | .
- O=S(=O)(c1ccccc1)N1CCN(c2nc(-c3cccs3)nc3ccccc23)CC1
  . | . | -0.4 | 0.6 | . | ?
- CN(C1CCCCC1)S(=O)(=O)c1ccc2c(c1)c(=O)c(C(=O)NCCN1CCCC1)cn2C
  ? | 7 | 1.0 | 0.1 | 8% | -4.8%
- COc1ccc(Cl)cc1NC(=O)Cn1nc(C(F)(F)F)c2c1CCCC2
  . | -3 | . | 0.9 | . | 1.1%
- Cc1sc2ncnc(NCc3cccnc3)c2c1C
  22% | 8 | 17 | -0.6 | -1% | .
- COc1cccc(NC(=O)C2C3C=CC(C3)C2C(=O)O)c1 (configuration not stated)
  20% | 41 | -4.0 | -0.3 | 8% | .
- O=c1c(Cl)c(NCc2ccc(F)cc2)cnn1C12CC3CC(CC(C3)C1)C2
  8% | 11 | -7.8 | 0.0 | -3% | -2.3%
- O=C(O)CCC(=O)N1N=C(c2c(-c3ccccc3)c3cc(Cl)ccc3[nH]c2=O)CC1c1ccccc1 (configuration not stated)
  -20%[15.4 µM] | -4 | -5.9 | 0.0 | 15% | .
- COc1ccccc1C(=O)Oc1ccc(C(C)C)cc1
  5% | 15 | 4.5 | 2.1 | -1% | -1.1%
- O=C(O)c1nccnc1C(=O)NCCc1c[nH]c2ccccc12
  19% | 13 | -1.0 | -0.1 | 10% | -1.2%
- COc1ccc(N/N=C(/C)c2cnnc(-c3ccccc3)n2)cc1
  -28% | 17 | 0.4 | 0.8 | 5% | -0.7%
- CCc1cccc(-n2c(=O)c3cccnc3n2CC(=O)Nc2ccc(F)c(C)c2)c1
  . | 48 | . | 1.3 | . | 4.1%
- COCCCNC(=O)c1ccccc1Oc1ccccc1
  -1% | 7 | 1.7 | -0.6 | 6% | 1.4%
- Cc1ccccc1Nc1nnc(-c2ccc(C(=O)NCCO)cc2)c2ccccc12
  ? | -20 | -10 | 0.2 | -4% | -3.8%
- Cc1cccc(-n2c(Cc3ccccc3)n[nH]c2=S)c1
  14% | 0 | -5.1 | 1.7 | 12% | .
- O=c1c2cccnc2n(Cc2cccc(F)c2)c(=O)n1Cc1ccccc1Cl
  . | 19 | . | 0.5 | . | ?
- Cc1cc(C)c2c(CC(=O)Nc3ccc(S(=O)(=O)Nc4nc(C)cc(C)n4)cc3)coc2c1
  . | -12 | . | 0.0 | . | -0.2%
- Cc1nc(SCc2c(F)cccc2Cl)n[nH]1
  10% | -1 | 1.1 | -0.2 | 18% | 1.2%
- CCN(CC)c1ccc(/C=C/C(=O)c2cccnc2)cc1
  -3% | -10 | -1.1 | 1.2 | -2% | -3.0%
- O=C(NCCC1=CCCCC1)c1ccc2c(c1)N(Cc1ccc(F)cc1)C(=O)c1ccccc1S2(=O)=O
  . | 30 | . | 2.0 | . | -0.8%
- CN(C)/N=C/c1c(O)ccc2ccccc12
  -15% | -4 | -2.1 | -0.8 | -15% | 3.2%
- O=C(CCNC(=O)c1ccccc1Cl)Nc1ccc2c(c1)OCO2
  1% | 15 | -0.6 | -0.4 | 6% | -1.2%
- COc1ccc2oc(=O)c(C(=O)Nc3cccc(C(C)=O)c3)cc2c1
  ? | . | -2.5 | . | -12% | -0.4%
- CC(C)NS(=O)(=O)c1cccc2nsnc12
  16% | -4 | -1.4 | -0.5 | 4% | -2.4%
- CC(=O)N1CCN(c2ccc(NCc3ccc(C(C)C)cc3)cc2)CC1
  -8% | -12 | 1.2 | 0.0 | ? | -2.8%
- O=C(COc1ccc([N+](=O)[O-])cc1)Nc1nnc(-c2cccnc2)s1
  7% | 15 | 4.7 | 1.3 | -5% | -0.1%
- CCn1c(-c2ccc(Cl)cc2)n[nH]c1=S
  5% | -6 | -1.5 | -0.8 | -2% | -6.2%
- COc1ccc(C)cc1S(=O)(=O)Nc1ccncc1
  -11%[15.4 µM] | 10 | -2.2 | -0.4 | 11% | -8.6%
- CCSC1=C(C#N)C(c2ccc(Cl)cc2)C2=C(CCCC2=O)N1 (configuration not stated)
  9% | 8 | 4.9 | 1.6 | 45µM* | -20%
- Cc1nnc(SCc2ccccc2)nc1-c1ccccc1
  -11% | 41 | . | 0.7 | -1% | 1.8%
- CCC1(c2ccc(C)cc2)NC(=O)N(CC(=O)Nc2cccc(S(=O)(=O)N3CCCC3)c2)C1=O (configuration not stated)
  -3% | 42 | . | 2.4 | -11% | -0.3%
- O=[N+]([O-])c1ccc(Cl)c(S(=O)(=O)Nc2ccc3cn[nH]c3c2)c1
  -45%[inhibitor] | -2 | . | 0.2 | -4% | .
- CC1Cc2ccccc2N1C(=O)CNc1cccc(S(=O)(=O)N2CCCC2)c1 (configuration not stated)
  5%[15.4 µM] | 46 | -1.2 | -0.2 | -16% | .

Molecules listed so far containing two or more sulfur atoms (3):
Values in the order – gsp ag | TRPML1 blocker | Menin-MLL FL inh | TRPML1 agonist | gsp antagonist | ClpP mod
- CC(Sc1ccc(S(=O)(=O)N2CCCCC2)cn1)C(N)=O (configuration not stated)
  -49%[inhibitor] | -11 | . | -0.5 | . | -2.5%
- O=S(=O)(c1ccccc1)N1CCN(c2nc(-c3cccs3)nc3ccccc23)CC1
  . | . | -0.4 | 0.6 | . | ?
- CC(C)NS(=O)(=O)c1cccc2nsnc12
  16% | -4 | -1.4 | -0.5 | 4% | -2.4%

Additional structures follow:
Values in the order – gsp ag | TRPML1 blocker | Menin-MLL FL inh | TRPML1 agonist | gsp antagonist | ClpP mod
- COc1cc(-c2n[nH]c(=S)n2-c2ccccc2C(F)(F)F)cc(OC)c1OC
  5%[15.4 µM] | -3 | 2.0 | -0.6 | -22% | -1.9%
- CCn1c(=O)cc(SCC(=O)N2CCCCC2)c2ccccc21
  ? | 34 | 2.1 | -0.7 | -24% | ?
- COCCNC(=O)c1cc(-c2cccc(Cl)c2)on1
  . | 3 | . | 1.2 | . | 0.6%
- COc1cccc(-n2cnc3sc4c(c3c2=O)CCC4)c1
  23%[15.4 µM] | -10 | 3.9 | -0.1 | -58% | 32µM*
- CCOc1ccc(NC(=O)Cn2c(CCC(=O)O)ccc2-c2ccc(Cl)cc2)cc1
  . | 25 | . | 1.1 | . | -4.8%
- C#CC1(NC(=O)NCCCC)CCCCC1
  16% | 3 | -0.3 | 0.2 | 14% | .
- O=C(CN1CCN(c2cccc(Cl)c2)CC1)NCc1ccccc1
  2% | -26 | 0.1 | -1.2 | -9% | -1.4%
- Cc1ncc(CN2CCCC(C(=O)Nc3ccc(-c4ccco4)cc3)C2)n1C (configuration not stated)
  14%[15.4 µM] | 6 | . | -0.1 | -7% | -0.9%
- COc1ccc(-c2c3c(=O)n(C)c(=O)n(C)c3c3c(-c4ccccc4)nc4ccccc4n23)cc1
  . | -10 | . | -0.7 | . | ?
- O=C1c2oc3ccc(F)cc3c(=O)c2C(c2cccc([N+](=O)[O-])c2)N1CCCN1CCOCC1 (configuration not stated)
  . | 11 | . | -0.4 | . | -8.4%
- CCOC(=O)C1C(=O)C=C(C)C(C(=O)OCC)C1c1cccc([N+](=O)[O-])c1 (configuration not stated)
  11%[15.4 µM] | 23 | -0.8 | 0.4 | -4% | -0.5%
- Cc1ccc(NC(=O)CN(c2ccccc2)S(=O)(=O)N(C)C)cc1Cl
  . | 2 | . | 2.4 | . | -2.1%
- CCOC(=O)CSc1nnc(NC(=O)c2cc([N+](=O)[O-])cc([N+](=O)[O-])c2)s1
  11% | -5 | 4.9 | -0.4 | ? | 1.5%
- Cc1ccc(C(=O)N/C(=C\c2ccc3c(c2)OCO3)C(=O)N2CCOCC2)cc1
  17% | 19 | . | -0.5 | -4% | -0.5%
- C=CCOc1ccc(CN(C)C(=O)CNC(=O)c2ccc(-c3ccccc3)cc2)cc1
  10%[15.4 µM] | 0 | . | 1.2 | -21% | -3.7%
- Cc1nn(C(=O)c2cccc(F)c2)c(C)c1S(=O)(=O)N1CCOCC1
  . | 4 | . | 1.0 | . | 1.2%
- COc1ccc(C(CNC(=O)CNS(=O)(=O)c2ccc(NC(C)=O)cc2)N2CCOCC2)cc1 (configuration not stated)
  -15% | -6 | . | -0.5 | 15% | -0.3%
- CC1CCN(S(=O)(=O)c2ccc3c(c2)oc(=O)n3CC(=O)NC(C)c2ccccc2)CC1 (configuration not stated)
  . | 3 | . | -0.3 | . | -1.7%

Compound activity (PubChem BioAssay)

Not a hit list; 2.1% or so of the library scored in one or more.
